Vaccinia stage = blocks a specific stage of Vaccinia orthopoxvirus infection, primary screen, cell-based, single point; Vaccinia-infected cells, mCherry/Venus stage reporter fluorescence; hits give low values; some inactives read as strong as hits; activity change (mCherry), % (test concentration not listed); actives 0.01% (n = 89,000); AID 1053133, 2014;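 active = mCherry past -33% and 40 or more points under the early reporter, replicates agreeing; inconclusive = past -33% without that gap or agreement; tested in A549 cells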;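 also: scaled between vehicle wells and reference inhibitor wells; 23 nL library stock went into each well; one replicate is shown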
Vaccinia stage Venus = recorded beside Vaccinia stage, whose call it bears; activity change (Venus), %; measured here: Venus reporter, other viral stage;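 negative = less Venus signal; first of two replicates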
* marks the source's active call; other numbers are inactive results; ? = inconclusive; · = no result given. The list is partial (hit frequency here may not be typical).

molecule	Vaccinia stage	Vaccinia stage Venus
COc1ccc(S(=O)(=O)Nc2ccc3c(c2)CC(=O)N([C@H](C)CO)C[C@H](C)[C@H](CN(C)C(=O)Nc2cccc4ccccc24)O3)cc1	32	20
O=C(NCC1CCCCC1)[C@H]1N[C@H]2c3ccc(C4=CCCCC4)c(=O)n3C[C@H]2[C@@H]1CO	-3	-3
N#C[C@H]1[C@H](c2ccccc2)[C@@H](CO)N1C(=O)Cc1ccccc1	1	6
CNC[C@H]1Oc2ccc(NC(=O)Nc3ccc(OC)cc3)cc2C(=O)N([C@H](C)CO)C[C@@H]1C	19	17
CN1c2ccc(-c3cccc(F)c3)cc2[C@@H]2[C@@H](CCN2S(=O)(=O)c2cccc(F)c2)[C@H]1CO	?	·
O=C(NCC[C@@H]1CC[C@H](NC(=O)C2CCCC2)[C@H](CO)O1)c1cc(Cl)cc(Cl)c1	-9	-7
C=CC[C@@]1(C(=O)N2CCCCC2)N=C(c2ccc(OCCCO)cc2)O[C@@H]1c1ccccc1	-9	-8
COc1ccccc1CNC(=O)C[C@@H]1C[C@@H]2c3cc(NC(=O)c4cccnc4)ccc3O[C@@H]2[C@H](CO)O1	6	4
COc1ccc2c3c(n(C)c2c1)[C@@H](CO)N(C(=O)Nc1ccc(F)cc1)CC31CCN(C(=O)NC2CCCC2)CC1	-32	-31
C[C@@H]1CN([C@H](C)CO)C(=O)c2cc(NC(=O)Cn3cnnn3)ccc2O[C@@H]1CN(C)CC1CC1	8	5
O=C(N[C@H]1CC[C@@H](CCNS(=O)(=O)Cc2ccccc2)O[C@H]1CO)c1ccccc1F	1	7
COc1ccc(CN(C)C[C@@H]2Oc3c(NS(C)(=O)=O)cccc3C(=O)N([C@H](C)CO)C[C@H]2C)cc1	5	13
Cc1ccc(S(=O)(=O)N(C)C[C@H]2Oc3cc(Br)ccc3S(=O)(=O)N([C@H](C)CO)C[C@H]2C)cc1	?	-15
CCCC#Cc1ccc2c(c1)O[C@H](CN(C)C(=O)c1cnccn1)[C@@H](C)CN([C@@H](C)CO)S2(=O)=O	-5	-1
C[C@@H]1CN([C@H](C)CO)C(=O)Cc2cc(NC(=O)Nc3ccc4c(c3)OCO4)ccc2O[C@@H]1CN(C)Cc1ccc(C(=O)O)cc1	12	15
Cc1ccc(F)cc1S(=O)(=O)N[C@@H]1CCN(Cc2cccc3[nH]ccc23)C1	14	12
Cc1noc(C)c1NC(=O)N(C)C[C@@H]1Oc2ncc(C#CC3CCCC3)cc2C(=O)N([C@H](C)CO)C[C@@H]1C	9	3
COc1ccc(CN(C)C[C@@H]2OCCCC[C@H](C)Oc3ccc(NC(=O)C4CCCCC4)cc3C(=O)N([C@@H](C)CO)C[C@@H]2C)cc1	?	·
O=C([C@H]1[C@H](CO)[C@H]2Cn3c(ccc(-c4cccnc4)c3=O)[C@@H]1N2Cc1cccnc1)N1CCOCC1	20	17
CO[C@H]1CN(C)C(=O)c2cc(NS(=O)(=O)c3ccc(Oc4ccccc4)cc3)ccc2OC[C@@H](C)NC[C@H]1C	-19	-12
CO[C@@H]1CN(C)C(=O)c2cc(NC(=O)c3ccccc3)ccc2OC[C@@H](C)N(C(C)=O)C[C@H]1C	1	6
CCNC(=O)C[C@H]1CC[C@@H](NS(=O)(=O)c2ccc(C)cc2)[C@H](CO)O1	2	13
CCC(=O)N1C[C@@H](O)COC[C@@H]2O[C@H](CC(=O)NCC3CCCCC3)CC[C@H]21	11	10
O=C(C[C@H]1CC[C@@H](NC(=O)CN2CCOCC2)[C@H](CO)O1)NC1CCC1	11	16
C[C@@H]1CN([C@@H](C)CO)C(=O)c2cc(NC(=O)Nc3ccccc3)ccc2O[C@H]1CN(C)S(=O)(=O)c1ccc(Cl)cc1	-8	0
C[C@H]1CCCCO[C@H](CN(C)Cc2ccc3c(c2)OCO3)[C@@H](C)CN([C@@H](C)CO)C(=O)c2cc(NC(=O)CCCN(C)C)ccc2O1	19	14
C[C@H]1CN([C@@H](C)CO)C(=O)c2cccc(NC(=O)Nc3ccc(C(F)(F)F)cc3)c2O[C@H]1CN(C)Cc1ccccc1	-31	-22
C[C@H](NC(=O)C[C@@H]1CC[C@@H](NC(=O)C2CCC2)[C@H](CO)O1)c1ccccc1	6	9
C[C@H](CO)N1C[C@H](C)[C@@H](CN(C)Cc2ccc(C(F)(F)F)cc2)Oc2c(NC(=O)C3CCCCC3)cccc2C1=O	-22	-11
O=C(C[C@@H]1CC[C@H]2[C@@H](COC[C@@H](O)CN2S(=O)(=O)c2cccc(F)c2)O1)NCCCN1CCOCC1	12	8
CN(C)CC#Cc1ccc([C@H]2[C@@H](CO)N3CCCCN(C(=O)NC4CCCC4)C[C@@H]23)cc1	3	6
CCCN1C[C@H](C)[C@H](OC)CN(C)C(=O)c2ccc(NC(=O)C3CCOCC3)cc2OC[C@@H]1C	7	2
COc1cccc(-c2ccc(C3[C@@H]4CN(C(=O)c5cnccn5)C[C@H]3N4)cc2)c1 (some centres undefined)	?	-4
COc1ccc(S(=O)(=O)N(C)C[C@H]2Oc3c(NS(C)(=O)=O)cccc3C(=O)N([C@@H](C)CO)C[C@@H]2C)cc1	11	16
C[C@H]1CN([C@@H](C)CO)S(=O)(=O)c2ccc(C#Cc3ccccc3F)cc2O[C@@H]1CN(C)C(=O)Cc1ccncc1	?	·
C[C@H]1CN([C@@H](C)CO)C(=O)c2cc(-c3ccc(F)cc3)cnc2O[C@H]1CN(C)Cc1ccccn1	2	-1
CC(C)C#Cc1cnc2c(c1)C(=O)N([C@H](C)CO)C[C@H](C)[C@H](CN(C)C(=O)CCN1CCCCC1)O2	5	1
COc1ccc(-c2ccc([C@@H]3[C@@H](CO)N4CCCCN(C(=O)NC(C)C)C[C@@H]34)cc2)cc1	-15	-11
O=C(Cc1ccccc1)N1CC[C@@H]2[C@H](CO)Nc3ccc(C#Cc4ccccc4)cc3[C@@H]21	6	0
C/C=C/c1ccc([C@@H]2[C@H](CO)N(C(=O)CN(C)C)C23CN(C(=O)C2CCCC2)C3)cc1	?	·
O=C(c1ccc(F)cc1)N(CC1CCC1)C[C@@H]1N[C@H](CO)[C@@H]1c1ccccc1	-28	-17
C[C@H](CO)N1C[C@H](C)[C@H](CN(C)S(=O)(=O)c2ccc(Cl)cc2)OCc2ccccc2-c2c(n(C)c3ccccc23)C1=O	?	·
C[C@H]1CN([C@@H](C)CO)C(=O)c2cccc(N(C)C)c2O[C@@H]1CN(C)S(=O)(=O)c1ccc(Cl)cc1	-20	-24
C[C@@H]1CN([C@H](C)CO)C(=O)c2cccc(NS(C)(=O)=O)c2O[C@H]1CN(C)S(=O)(=O)c1ccc(Cl)cc1	16	2
O=C(Nc1ccccc1)N1CCCCN2[C@H](C1)[C@@H](c1ccc(C#Cc3ccccc3)cc1)[C@@H]2CO	?	·
Cc1noc(C)c1S(=O)(=O)N(C)C[C@H]1Oc2ccc(NC(=O)CCC(F)(F)F)cc2CC(=O)N([C@@H](C)CO)C[C@@H]1C	13	12
O=C(NCC[C@@H]1CC[C@H](NC(=O)C2CCCC2)[C@H](CO)O1)Nc1ccc(Cl)cc1	-1	-3
CO[C@@H]1CN(C)C(=O)c2ccc(NC(=O)Nc3cc(F)ccc3F)cc2OC[C@H](C)NC[C@H]1C	-17	-11
C[C@@H]1CN([C@@H](C)CO)C(=O)c2cc(NC(=O)c3ccncc3)ccc2O[C@@H](C)CCCCO[C@@H]1CN(C)S(=O)(=O)c1cn(C)cn1	17	15
C[C@@H]1CCCCO[C@@H](CN(C)CC2CCCCC2)[C@@H](C)CN([C@@H](C)CO)C(=O)c2cc(NC(=O)Nc3ccc(F)cc3)ccc2O1	?	·
Cc1ccc(S(=O)(=O)N(C)C[C@@H]2OCCCC[C@@H](C)Oc3ccc(NS(C)(=O)=O)cc3C(=O)N([C@@H](C)CO)C[C@H]2C)cc1	-2	-3
CN(C)CCCNC(=O)C[C@H]1CC[C@H]2[C@@H](COC[C@H](O)CN2S(=O)(=O)c2ccc(F)cc2)O1	1	2
C[C@@H]1CN([C@H](C)CO)C(=O)c2cc(Br)cnc2O[C@@H]1CN(C)CC1CCCC1	14	2
Cc1noc(C)c1NC(=O)Nc1cccc2c1O[C@@H](CN(C)S(=O)(=O)c1ccc(Cl)cc1)[C@@H](C)CN([C@@H](C)CO)C2=O	1	-11
COc1ccc(S(=O)(=O)N(C)C[C@H]2Oc3c(NC(=O)Nc4ccc5c(c4)OCO5)cccc3C(=O)N([C@@H](C)CO)C[C@@H]2C)cc1	-7	-9
C[C@@H](NC(=O)C[C@@H]1CC[C@H](NC(=O)c2cccnc2)[C@H](CO)O1)c1ccccc1	-5	0
CCC(=O)Nc1ccc2c(c1)C(=O)N(C)[C@H]1CC[C@@H](CC(=O)NCCN3CCCCC3)O[C@@H]1CO2	8	-1
COCCNC(=O)C[C@@H]1CC[C@@H]2[C@@H](COc3ccc(NC(=O)C4CCCC4)cc3C(=O)N2C)O1	13	10
COc1ccc2c3c(n(C)c2c1)[C@H](CO)NCC31CCN(CC2CC2)CC1	-33	-20
COc1ccc(S(=O)(=O)N(C)C[C@H]2OCCCC[C@H](C)Oc3ccc(NC(=O)NC(C)C)cc3C(=O)N([C@@H](C)CO)C[C@@H]2C)cc1	-10	-1

Sorted by molar mass (ascending): some entries from above.
molecule	Vaccinia stage	Vaccinia stage Venus
COc1ccc2c3c(n(C)c2c1)[C@H](CO)NCC31CCN(CC2CC2)CC1	-33	-20
C[C@@H](NC(=O)C[C@@H]1CC[C@H](NC(=O)c2cccnc2)[C@H](CO)O1)c1ccccc1	-5	0
C[C@@H]1CN([C@H](C)CO)C(=O)c2cc(Br)cnc2O[C@@H]1CN(C)CC1CCCC1	14	2
COCCNC(=O)C[C@@H]1CC[C@@H]2[C@@H](COc3ccc(NC(=O)C4CCCC4)cc3C(=O)N2C)O1	13	10
CO[C@@H]1CN(C)C(=O)c2ccc(NC(=O)Nc3cc(F)ccc3F)cc2OC[C@H](C)NC[C@H]1C	-17	-11
CN(C)CCCNC(=O)C[C@H]1CC[C@H]2[C@@H](COC[C@H](O)CN2S(=O)(=O)c2ccc(F)cc2)O1	1	2
Cc1noc(C)c1S(=O)(=O)N(C)C[C@H]1Oc2ccc(NC(=O)CCC(F)(F)F)cc2CC(=O)N([C@@H](C)CO)C[C@@H]1C	13	12
Cc1noc(C)c1NC(=O)Nc1cccc2c1O[C@@H](CN(C)S(=O)(=O)c1ccc(Cl)cc1)[C@@H](C)CN([C@@H](C)CO)C2=O	1	-11
Cc1ccc(S(=O)(=O)N(C)C[C@@H]2OCCCC[C@@H](C)Oc3ccc(NS(C)(=O)=O)cc3C(=O)N([C@@H](C)CO)C[C@H]2C)cc1	-2	-3
COc1ccc(S(=O)(=O)N(C)C[C@H]2Oc3c(NC(=O)Nc4ccc5c(c4)OCO5)cccc3C(=O)N([C@@H](C)CO)C[C@@H]2C)cc1	-7	-9

Following part
Below each compound: Vaccinia stage, Vaccinia stage Venus
> O=C(C[C@@H]1C[C@H]2c3cc(NC(=O)C4CCC4)ccc3O[C@H]2[C@@H](CO)O1)NCC(F)(F)F
→ 10, 1
> C[C@H](CO)N1C[C@H](C)[C@@H](CN(C)C(=O)c2ccc3c(c2)OCO3)Oc2ncc(/C=C/c3ccccc3)cc2C1=O
→ -29, -28
> C/C=C/c1ccc([C@@H]2[C@H](CO)N(C(=O)C3CCC3)C23CN(C(=O)NC(C)C)C3)cc1
→ 10, 9
> C[C@@H]1CN([C@@H](C)CO)C(=O)c2ccccc2-c2ccccc2CO[C@@H]1CN(C)Cc1ccncc1
→ 17, -1
> CC(C)NC(=O)Nc1ccc2c(c1)C(=O)N([C@H](C)CO)C[C@H](C)[C@@H](CN(C)Cc1ccc(Cl)c(Cl)c1)O2
→ 10, 5
> COc1ccc(NC(=O)Nc2ccc3c(c2)C(=O)N([C@@H](C)CO)C[C@H](C)[C@H](CN(C)CC2CCCCC2)OCCCC[C@H](C)O3)cc1
→ ?, ·
> C[C@H]1CN([C@@H](C)CO)C(=O)c2cccc(NC(=O)c3cnccn3)c2O[C@@H]1CN(C)S(=O)(=O)c1cccs1
→ -6, -4
> Cc1ccc(OC(=O)N(C)C[C@H]2OCc3ccccc3-c3ccccc3C(=O)N([C@H](C)CO)C[C@@H]2C)cc1
→ -19, -18
> CN(C)C(=O)c1cccc(-c2ccc([C@H]3[C@@H](CO)N4C(=O)CN(C(=O)CC5CC5)C[C@@H]34)cc2)c1
→ 14, 5
> CN1C(=O)c2cc(NC(=O)c3ccc(F)c(F)c3)ccc2OC[C@H]2O[C@@H](CC(=O)N3CCCCC3)CC[C@H]21
→ ?, ·
> CC(C)NC(=O)N(C)C[C@H]1Oc2ccc(N(C)C)cc2C(=O)N([C@H](C)CO)C[C@@H]1C
→ 13, 1
> COc1cccc(C(=O)N2C[C@@H]3[C@H](c4ccccc42)[C@H](CO)N3C(=O)c2ccccc2)c1
→ 0, 9
> COc1ccc(NC(=O)N(C)C[C@@H]2Oc3ncc(Br)cc3C(=O)N([C@H](C)CO)C[C@@H]2C)cc1
→ 5, 3
> Cc1noc(C)c1S(=O)(=O)Nc1ccc2c(c1)CC(=O)N([C@@H](C)CO)C[C@H](C)[C@H](CN(C)C(=O)Nc1cccc3ccccc13)O2
→ 8, 10
> CCCC(=O)N1CCC2(CC1)CN(C(C)=O)[C@@H](CO)c1c2c2ccc(OC)cc2n1C
→ 11, 2
> CN1c2ccc(-c3ccccc3)cc2[C@H]2[C@H](CCN2C(=O)Cc2cccnc2)[C@H]1CO
→ -2, -4
> CCN(C[C@@H]1[C@@H](c2ccccc2)[C@H](CO)N1C(C)=O)C(=O)NC(C)C
→ -4, 2
